KCNQ2 pot: potentiators of rat KCNQ2 potassium channel; AID 2239; CHO-K1 KCNQ2, FluxOR thallium flux fluorescence; active compounds read high; 310,000 tested, 0.54% active; B-score at 10 µM;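 active = fluorescence ratio B-score at least 3 SD of library B-scores, with initial fluorescence B-score within 3 SD, cut at about 5.3 in these data; same plate scores as AID 2156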;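 also: B-score of peak minus minimum over baseline fluorescence ratio after K+ and Tl+ stimulus; positive B-score means potentiation of KCNQ2 with more thallium influx and brighter signal; only the inactives scoring about 0 or higher are listed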
Target sequence (O88943 whole entry, looked up): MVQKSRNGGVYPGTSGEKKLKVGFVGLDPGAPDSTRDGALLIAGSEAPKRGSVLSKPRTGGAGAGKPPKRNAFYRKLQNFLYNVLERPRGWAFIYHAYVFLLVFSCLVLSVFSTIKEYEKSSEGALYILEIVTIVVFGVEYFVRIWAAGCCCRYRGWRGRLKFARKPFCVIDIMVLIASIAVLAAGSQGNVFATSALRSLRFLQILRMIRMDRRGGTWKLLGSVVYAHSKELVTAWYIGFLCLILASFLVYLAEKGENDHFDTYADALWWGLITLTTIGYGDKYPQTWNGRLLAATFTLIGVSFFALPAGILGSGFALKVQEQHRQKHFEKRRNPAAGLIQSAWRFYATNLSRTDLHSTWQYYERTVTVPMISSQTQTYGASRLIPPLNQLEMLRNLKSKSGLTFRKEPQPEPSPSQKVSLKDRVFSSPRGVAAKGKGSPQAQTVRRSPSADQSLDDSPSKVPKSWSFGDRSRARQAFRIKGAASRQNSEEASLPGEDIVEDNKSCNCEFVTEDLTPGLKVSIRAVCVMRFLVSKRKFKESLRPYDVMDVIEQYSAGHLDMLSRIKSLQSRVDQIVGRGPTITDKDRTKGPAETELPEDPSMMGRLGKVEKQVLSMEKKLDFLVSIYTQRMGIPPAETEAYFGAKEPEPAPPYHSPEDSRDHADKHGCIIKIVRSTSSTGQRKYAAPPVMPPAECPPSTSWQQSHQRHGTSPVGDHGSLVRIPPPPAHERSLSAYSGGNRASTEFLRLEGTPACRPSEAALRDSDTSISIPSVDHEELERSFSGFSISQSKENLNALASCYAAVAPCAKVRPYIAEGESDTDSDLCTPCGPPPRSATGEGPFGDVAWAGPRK
KCNQ2 pot baseline: recorded beside KCNQ2 pot, whose call it bears; B-score; compound at 10 µM; measured here: initial fluorescence intensity artifact check;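 brightness before thallium and not channel activity; 0 = typical well and far values either way flag optical interference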
Active calls of the source: *.

canonical_smiles,KCNQ2 pot,KCNQ2 pot baseline
Cc1ccccc1C(=O)NCC(=O)OC(C)C(=O)Nc1ccnn1C(C)C (stereo unspecified),1.5,-0.08
Cc1ccc(N(C(=O)CCCC(=O)Nc2ccccn2)C(C(=O)NC2CCCC2)c2ccc(O)cc2)cc1C (stereo unspecified),0.2,0.15
O=C(C/C=N\OCc1c(Cl)cccc1Cl)Oc1ccc(Cl)cc1Cl,0.7,-0.44
CC(C)CCNC(=O)C1c2ccccc2Oc2ccccc21,0.15,-0.82
COc1ccc(C(CNC(=O)c2ccc(Cl)c(NC(=O)c3cccs3)c2)N2CCCC2)cc1 (stereo unspecified),1.2,-0.27
O=C(Nc1nnc(S(=O)(=O)N2CCCCCC2)s1)c1ccccc1,1,2.4
CCCC(=O)Nc1ccc(Nc2ccccc2)cc1,0.79,-0.28
CCCC(CCC)C(=O)Nc1cccc(C(=O)O)c1,0.7,-0.09
CCn1ncc(C2=NOC(C(=O)Nc3cccc(O)c3)C2)c1C (stereo unspecified),1.1,-1.3
Cc1ccc(Cl)cc1NC(=O)CSc1nncn1-c1ccccn1,0.32,-0.68
CN1C(=O)c2ccccc2C(C(=O)O)C1c1cccc(F)c1 (stereo unspecified),0.26,-0.04
C[n+]1ccn(CC(=O)c2cc(C(C)(C)C)c(O)c(C(C)(C)C)c2)c1,3,0.92
CNS(=O)(=O)c1cc(NC(=O)c2cnc(SC)n2-c2ccccc2)ccc1C,0.13,0.03
CCCc1cc(=O)[nH]c(SCC(=O)Nc2nc3ccc(OCC)cc3s2)n1,0.99,0.05
c1ccc(-c2cc(-c3ccccc3)[nH]n2)cc1,0.61,0.06
COCCNC(=O)C1CC(=O)N(C2CCCCC2)C1 (stereo unspecified),0.01,-0.82
Cc1cc(OCC(=O)NCc2ccccn2)c2c(C)c(C)c(=O)oc2c1,0.7,0.34
Cc1cc(C)n(-c2ccc(C(=O)Nc3nnc(C)s3)cc2)n1,0.66,-0.87
Cc1ccc(NC(=O)CN2CCCCCC2)cc1[N+](=O)[O-],0.11,-0.18
CCOC(=O)c1ccc(NC(=O)N2CCOCC2)cc1,0.02,1.8
Cc1ccc(-c2csc(NC(=O)CSC3=NCCS3)n2)cc1,0.02,-0.88
COc1ccccc1N1C(=O)c2ccc(C(=O)Nc3cccc(C(C)=O)c3)cc2C1=O,1.1,-0.85
O=c1c(Cl)c(NCCO)cnn1-c1cccc(Cl)c1,1.1,-0.34
CCCS(=O)(=O)N1CCCC(C(=O)Oc2ccc(C)c(C)c2)C1 (stereo unspecified),0.34,-0.38
O=C(/C=C/Nc1ccccc1)c1cnc(-c2ccccc2)s1,0.62,-0.37
COCCn1nnnc1CN1CCC(Cc2ccccc2)CC1,1.9,-0.25
COc1ccc(NC(=O)c2ccccn2)cc1OC,0.4,0.07
COc1ccc(NC(=O)CN(C)S(=O)(=O)c2cccs2)cc1,2.6,-1.8
O=C(NNC(=O)c1ccc(-c2ccccc2)cc1)c1ccccc1,0.22,0.84
O=C(NC1CCCC1)C(c1ccccc1)N(Cc1ccccc1)C(=O)c1csnn1 (stereo unspecified),1,1.1
CCOC(=O)N1CCC(Nc2c(N3CCN(c4cc(Cl)ccc4C)CC3)c(=O)c2=O)CC1,1.1,0.13
CC(C)CC(=O)NC(=S)Nc1ccc(N2CCOCC2)c(Cl)c1,0.04,-1.3
CCN(CC)S(=O)(=O)c1cccc(C(=O)Oc2cccnc2)c1,3.7,-0.21
COC(=O)c1ccc2c(=O)n(Cc3ccco3)c(SCC(=O)Nc3cc(C)on3)nc2c1,0.35,0.73
CCOCCCNC(=O)C(NC(=O)Cc1cccs1)c1ccc(Cl)cc1 (stereo unspecified),1,0.13
O=C(CNCC1CCCO1)N1CCCCCC1 (stereo unspecified),0.48,1.1
CCCCN(CCCNC(=O)Cn1ncc2ccsc2c1=O)Cc1ccccc1,0.36,0.85
Cn1nc(C(F)(F)F)c(-c2ccccc2)c1NC(=O)c1nccnc1C(=O)O,0.78,0.01
CCn1c(O)c(N=NC(=O)CNC(=O)/C=C/c2ccccc2)c2ccccc21,0.15,-1.7
CC(C)=CCc1c(C)nc2ccccc2c1C(=O)O,1.3,-0.78
COc1ccc(-c2ccc(SCC(=O)NCc3ccc4c(c3)OCO4)nn2)cc1OC,1.2,1.1
COc1ccc(OC)c(S(=O)(=O)N2CCC3(CC2)OCCN3S(=O)(=O)c2ccccc2)c1,0.29,-0.65
COc1ccc(N2CCN(C(=O)COc3ccc4c(C)cc(=O)oc4c3)CC2)cc1,1.2,0.49
COc1ccccc1N1CCN(/N=C/c2cc(OC)c(OC(C)=O)c(OC)c2)CC1,0.75,-0.64
Cc1ccn2cc(C(=O)Nc3ccc4c(c3)OCCO4)nc2c1,0.39,-0.79
CCN1/C(=C2\C(=O)N(c3ccccc3)N=C2C)C=Cc2cc(C)ccc21,1.4,0.67
O=C(Nc1c2c(nc3ccccc13)CCCC2)c1ccccc1Br,1.4,-1.8
COc1ccc(CNC(=O)CN2C(=O)NC3(CCCCCC3)C2=O)cc1OC,0.14,-1.9
O=C(/C=C/c1ccc(Cl)cc1)Nc1ccc(Br)cn1,1.1,1.6
CCOc1nc(Nc2ccc(OC)cc2)nc(OCC)n1,0.32,-2.3
NC(=O)NC(c1ccccc1)c1ccccc1,0.18,-0.02
O=C(CCNC(=O)c1ccccc1Cl)NCCC1=CCCCC1,1.1,0.45
O=C(NCc1ccccc1Cl)c1cnn2cccnc12,0.2,0
CCOc1cc(C(=O)NCc2ccccc2)ccc1OCC(=O)N1CCOCC1,1.1,-0.05
CN(C)CC(C)(C)CNS(=O)(=O)c1cccc(Cl)c1Cl,0.26,-0.08
CCN(CC)S(=O)(=O)c1ccc(Cl)c(C(=O)NC)c1,0.3,0.05
O=C(Nc1ccc(NC(=O)C2CCCCC2)nc1)c1ccccn1,0.05,-0.54
COc1ccccc1NC(=O)Nc1ccc2[nH]c(=O)[nH]c2c1,0.52,-0.56
CCC(=O)Nc1c(C(=O)N2CCCCCC2)cnn1-c1ccc(C)c(C)c1,0.14,0.85
CCOc1cc(/C=N/NC(=O)Nc2ccccc2)ccc1O,0.59,-0.59

Random excerpt: 5 entries already listed.
canonical_smiles,KCNQ2 pot,KCNQ2 pot baseline
O=C(NCc1ccccc1Cl)c1cnn2cccnc12,0.2,0
CCCC(=O)Nc1ccc(Nc2ccccc2)cc1,0.79,-0.28
Cc1ccc(-c2csc(NC(=O)CSC3=NCCS3)n2)cc1,0.02,-0.88
COc1ccc(NC(=O)CN(C)S(=O)(=O)c2cccs2)cc1,2.6,-1.8
COc1ccc(OC)c(S(=O)(=O)N2CCC3(CC2)OCCN3S(=O)(=O)c2ccccc2)c1,0.29,-0.65

Other entries follow.
canonical_smiles,KCNQ2 pot,KCNQ2 pot baseline
Cc1ccc(C(=O)N/C(=C\c2cccs2)C(=O)N2CCN(C)CC2)cc1C,2.1,-0.7
O=C1C2CC=CCC2C(=O)N1c1ccc(NCCc2ccc(O)cc2)c([N+](=O)[O-])c1 (stereo unspecified),0.73,0.04
CCOC(=O)N1CCN(C(=O)CSc2nnc(-c3ccc(C(C)(C)C)cc3)o2)CC1,0.16,2.2
CCCCOC(=O)n1c(=O)oc2ccc(S(=O)(=O)N3CCCCC3)cc21,1.4,-0.16
CCCc1nc2nc(C)c(NS(=O)(=O)c3ccc(C(C)(C)C)cc3)c(=O)n2[nH]1,1.6,0.37
COc1ccc(Cl)cc1NC(=O)NCCN1CCCCC1,0.53,0.03
S=C(NCc1ccc2c(c1)OCO2)NC1CC1,0.43,-1.1
CC1(C)CC(=O)C2=C(C1)Nc1ccccc1NC2c1ccccc1F (stereo unspecified),0.42,-0.12
CN(C)/C(=N\S(=O)(=O)c1ccc(Cl)cc1)c1ccc(F)cc1,3.3,-0.01
Cc1cccc(Nc2cc(=O)[nH]c(=O)[nH]2)c1C,1.3,-0.72
C[C@@H](NC(=O)[C@@H]1Cc2ccccc2CN1)C(=O)NCc1ccco1,0.47,-0.03
C=CCOn1c(=O)c(-c2cc3ccccc3o2)[n+]([O-])c2ccccc21,0.06,-0.64
COc1ccccc1OCC(=O)N1CCN(C(=O)c2ccco2)CC1,0.04,-3.3
CC(C)(C)c1nc2scc(-c3cccs3)c2c(=O)o1,0.08,-2.1
Cc1ccccc1C(=O)NNC1=NCCC1,0.78,1.5
CC(=O)Cc1nnn(-c2cc(C)on2)n1,0.26,-0.57
O=C(O)c1cccc(NC(=O)c2cc(NC(=O)c3ccccc3)cc(NC(=O)c3ccccc3)c2)c1,0.47,0.15
O=C(NC1(C(F)(F)F)NC(=O)N(CCc2ccccc2)C1=O)C1CC1 (stereo unspecified),0.31,-0.22
CSc1ccc(S(=O)(=O)NCCSC(C)(C)C)cc1,1.1,-0.81
c1cncc(CNc2nc(-c3cccnc3)nc3ccccc23)c1,2.9,0.91
O=S(=O)(NCc1cc(-c2ccc(Cl)cc2)no1)c1ccccc1,0.88,0.03
COC(=O)Cn1cc(C(=O)OC)c2ccccc21,0.18,0.65
Cc1nn(Cc2ccc(C(=O)Nc3nc4c(C)cccc4s3)o2)c(C)c1Br,1.2,0.27
CC1CCN(CCCNS(=O)(=O)c2cc(Br)cc3c2N(C(=O)C2CC2)CC3)CC1,0.02,0.64
NC(=O)CCn1c(C(=O)c2ccc(Cl)cc2)c2ccccc2[n+]1[O-],1.6,0.87
CSCC[C@H](NC(=O)CCCn1nnc2ccccc2c1=O)C(=O)O,0.22,0.87
O=C(COc1ccc2ccccc2c1Br)NC(=S)Nc1cccc(CO)c1,0.48,-1.4
O=C(NCc1ccc(F)cc1)C1CCN(C(=O)Nc2ccc(F)cc2)CC1,0.78,-0.92
Fc1cccc2sc(Nc3nnc(-c4ccccc4)o3)nc12,26*,-1.6*
O=C(O)c1ccc(/C=C/c2ccc3cccc(O)c3n2)cc1,1,-0.08
O=C(NNc1ccccc1C(F)(F)F)c1cccs1,0.71,-0.73
CC(=O)Nc1nc(CC(C)C)cc(-c2ccco2)c1C#N,0.65,-0.25
CC(=O)c1ccc(N2CCN(C(=O)C3CCCN(S(=O)(=O)c4c(C)[nH]c(=O)[nH]c4=O)C3)CC2)cc1 (stereo unspecified),1.4,-0.46
O=C(CCCOc1ccccc1)Nc1nc2ccccc2[nH]1,0.76,-1.1
O=C(Nc1ccc(F)cc1)Nc1cccnc1,0.67,-0.04
c1ccc(-c2nnc(N3CCCC3)nc2-c2ccccc2)cc1,0.58,0.22
Nc1nc(NCCCN2CCOCC2)nc(Nc2ccccc2)c1[N+](=O)[O-],3.1,-2.3
CC1(Br)C2CCCC1C2S(=O)(=O)c1ccccc1 (stereo unspecified),0.39,0.08
O=C(O)C1CCN(S(=O)(=O)c2cccnc2)CC1,0.04,0.62
O=C(O)c1[nH]c2ccccc2c1C=NCc1ccccc1Cl,0.85,-1.2
CCO[C@@H]1OC(C(=O)NC2CC2)=C[C@H](c2ccc3c(c2)OCO3)[C@H]1CCCO,0.46,1
CCC1ON(c2ccccc2)C2c3nc4ccccc4n3CC12 (stereo unspecified),0.03,-0.57
Cc1nc(C)c(C(=O)NNC(=O)c2ccc(Br)cc2)s1,1.6,-0.31
COc1ccc(-c2nnn(CC(=O)N(CC(=O)NCCC(C)C)Cc3cccs3)n2)cc1OC,0.57,-0.13
COc1ccccc1N1CCC(N2CCN(CC(C)(C)C)C(CCO)C2)CC1 (stereo unspecified),0.02,0.04
Cc1nn(CC(=O)NCc2ccc(-n3cccn3)cc2)c(C)c1[N+](=O)[O-],0.58,0.91
Cc1c(NC(=O)C(C)OC(=O)CC2Sc3ccccc3NC2=O)c(=O)n(-c2ccccc2)n1C (stereo unspecified),0.71,0.01
Cc1ccc(Cl)cc1NC(=S)N(Cc1cccs1)C1CCCC1,2.2,0.1
O=C1OCCC1Sc1nc2ccccc2[nH]1 (stereo unspecified),0.79,1.1
COC(=O)C1C2C=CC3(CN(CC4CCCO4)C(=O)C13)O2 (stereo unspecified),0.57,-0.98
C#CCn1c(=NC(=O)c2cccs2)sc2cccc(OC)c21,0.65,-1.9
COc1ccccc1NC1CCCCC1NS(=O)(=O)c1ccccc1 (stereo unspecified),1.1,0.06
CC(C)(C)NC(=O)c1sccc1C(=O)O,0.5,0.62

Profiles as entered above. Screens in order: KCNQ2 pot	KCNQ2 pot baseline
Profile of COc1ccc(-c2nnn(CC(=O)N(CC(=O)NCCC(C)C)Cc3cccs3)n2)cc1OC : 0.57	-0.13
Profile of Cc1c(NC(=O)C(C)OC(=O)CC2Sc3ccccc3NC2=O)c(=O)n(-c2ccccc2)n1C (stereo unspecified) : 0.71	0.01
Profile of Cc1nn(CC(=O)NCc2ccc(-n3cccn3)cc2)c(C)c1[N+](=O)[O-] : 0.58	0.91

Screening results: PubChem BioAssay, Johns Hopkins Ion Channel Center

An excerpt; rates above refer to the full screens.
